From PubChem
T cruzi inh: T. cruzi replication inhibition; T. cruzi beta-gal in NIH3T3, luminescence, 90 h; inhibition, % (test concentration not listed); hit rate 1.4% among 300,000; AID 1885;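 active = mean inhibition across valid replicates above about 55%, limit read from the data; inconclusive = mean below that limit but half or more replicates reach it; inactive = mean below it, under half of replicates reach it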;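 also: signal also drops with host cell toxicity which is not excluded here; 0% = plate median of DMSO wells and 100% = zero luminescence signal; higher percent means less beta-gal luminescence so fewer parasites; stock transfer was 50 nL into about 50 µL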
rRNA inh HTS: inhibitors of bacterial rRNA selective over humanized ribosomes; E. coli WT GFP vs humanized-ribosome RFP mutants, fluorescence, 24 h; active compounds read low; DMSO median 0, no signal -100; GFP signal change (wild-type ribosome), % (no concentration beside the values); hit rate 1.6% among 350,000;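 active = significant combined selectivity score with lowered wild-type GFP, culture density cut under 30%, mutant RFP and density less affected; inactive = any of these conditions unmet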; also: one replicate is shown; some compounds called inactive have numbers as strong as hits
Calb FLC: C. albicans growth modulation with fluconazole | growth inhibition, % (no concentration beside the values) | C. albicans CaCi-2 (fluconazole-resistant clinical isolate) + fluconazole, Alamar Blue growth, 48 h | hit rate 0.57% among 300,000;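 active = most replicates above 75%; inconclusive = exactly half above 75%; inactive = most below 75%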;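 also: all wells also contain fluconazole at 8 µg/ml as a sub-toxic cotreatment; 0% = median of DMSO wells and 100% = median of geldanamycin control wells; wells of about 8 µL received 7.5 nL stock; the first replicate is given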
Beta apoptosis: beta cell apoptosis inhibition; INS-1E cytokine-induced death, ATP luminescence, 48 h; percent of positive-control rescue, neutral wells zero; protection from apoptosis, % (no concentration beside the values); hit rate 0.8% among 300,000; AID 435005;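 active = all replicates at 75% or more, or half of them and the mean; inconclusive = half reach 75% but not the mean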;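 also: 0% = cytokine-treated negative control wells and 100% = positive control rescue; higher means more ATP so stronger rescue from cytokine killing; wells of about 40 µL received 100 nL stock; the first replicate is given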
A1 inh: inhibitors of the anti-apoptotic protein A1, read as caspase activation | MEF A1-2A-BIM cells, Caspase-Glo 3/7 luminescence, 3 h; percent of clofoctol response, vehicle zero | caspase activation, % (no concentration beside the values) | hit rate 0.066% among 330,000 | AID 2462;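 active = over half of replicate activation scores above 10%, or exactly half above 10 with the replicate mean above 10; inconclusive = replicate mean below 10 yet half the replicates above 10; inactive = over half of replicates below 10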;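 also: wells of about 30 µL received 50 nL stock; many hits fall short of the cut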
Vif TR-FRET: HIV-1 Vif–A3G interaction blockers – biochemical, TR-FRET, GST-Vif 1-94, biotin-A3G peptide, dose response retest, primary screen (AID 1117319); hit rate 0.57% among 260,000; inhibition, %, or IC50 in µM where a hit was titrated; TR-FRET GST-Vif / biotin-A3G peptide binding; higher % means a stronger effect; test concentration not given here; strong numbers were not always called active;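 active = above the screen mean plus three standard deviations and confirmed in dose response; inconclusive = results disagree or hit not tested in dose response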;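 also: Vif residues 1-94 fused to GST binding biotinylated APOBEC3G peptide 110-148; 0% = full assay without inhibitor and 100% = GST in place of GST-Vif; retest series ran down from 100 µM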
AF4-AF9 inh: blocks AF4 peptide binding to human AF9. P42568. AlphaScreen, biotin-AF4 peptide binding to FLAG-AF9. inhibition, % at 10 µM. hit rate 0.47% among 350,000. AID 651704;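 active = every replicate reaching a set inhibition limit, whatever the replicate mean, cut at about 25% in these data; inconclusive = mean inhibition reaches that limit but some replicates miss it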;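 also: 0% = plate neutral control median and 100% = total signal loss; the record names both 10 and 1 µM as test concentration; the first replicate is given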
Target sequence (P42568 whole entry, looked up): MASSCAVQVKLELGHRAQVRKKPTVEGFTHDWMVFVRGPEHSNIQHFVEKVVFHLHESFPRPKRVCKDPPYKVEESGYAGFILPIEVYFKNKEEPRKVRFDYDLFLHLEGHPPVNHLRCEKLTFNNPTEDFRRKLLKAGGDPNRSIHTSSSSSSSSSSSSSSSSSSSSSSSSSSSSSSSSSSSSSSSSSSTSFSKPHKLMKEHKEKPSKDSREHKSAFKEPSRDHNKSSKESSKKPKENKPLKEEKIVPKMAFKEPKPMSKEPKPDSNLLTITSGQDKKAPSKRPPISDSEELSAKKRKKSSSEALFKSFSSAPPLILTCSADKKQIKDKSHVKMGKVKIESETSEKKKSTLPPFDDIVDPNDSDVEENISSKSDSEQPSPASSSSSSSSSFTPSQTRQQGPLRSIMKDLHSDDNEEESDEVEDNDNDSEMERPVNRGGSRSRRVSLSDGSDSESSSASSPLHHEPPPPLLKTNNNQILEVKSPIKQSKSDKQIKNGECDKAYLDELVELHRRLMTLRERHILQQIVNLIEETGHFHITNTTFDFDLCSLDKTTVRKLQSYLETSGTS
RanGTP-Impb inh: inhibitors of RanGTP-importin-beta interaction, primary screen, biochemical, FRET, CFP-Ran, YFP-importin-beta, homogeneous; cell-free CFP-Ran/YFP-importin-beta FRET ratio; inhibition, % (no concentration beside the values); hit rate 1.1% among 300,000; AID 2216;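 active = most replicates above 15%; inconclusive = exactly half above 15%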;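 also: 0% = DMSO wells and 100% = Ran loaded with GDP instead of GTP; wells of about 40 µL received 100 nL stock; the first replicate is given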
rRNA inh HTS OD600: recorded beside rRNA inh HTS, whose call it bears; OD600 change, %; measured here: OD600 growth;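 optical density of the mix in the first replicate; 0 = DMSO median and -100 = no signal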
rRNA inh HTS RFP: also measured in rRNA inh HTS; calls as there; RFP signal change, %; measured here: RFP humanized mutant strains;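 first replicate; 0 = DMSO median and -100 = no signal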
* = called active by the depositor; u = inconclusive; x = not tested or not shown; & = joins results of further samples.

SMILES | T cruzi inh | rRNA inh HTS | rRNA inh HTS OD600 | rRNA inh HTS RFP | Calb FLC | Beta apoptosis | A1 inh | Vif TR-FRET | AF4-AF9 inh | RanGTP-Impb inh
CCOc1ccc(S(=O)(=O)NCCC(=O)OCN2C(=O)c3ccccc3C2=O)cc1 | 2 | x | x | x | -3 | -1 | 1.0 | 12% | x | -3.3
COc1ccc(NC2=Nc3ccccc3N3C2=Nc2c(c(C)nn2-c2ccc(C)cc2)C3c2cccnc2)cc1 (stereo not given) | 3 | x | x | x | 119* | 9 | -1.1 | -1% | x | x
Cc1cccc2sc(NC(=O)C3CCCN(S(=O)(=O)c4cccc5nonc45)C3)nc12 (stereo not given) | 5 | x | x | x | 0 | 5 | 2.4 | -10%&14% | x | -6.4
Cc1ccc(C(=O)n2cnc3ccccc32)cc1C | -2 | 8 | 11 | -6.1 | -2 | -10 | 0.9 | 4% | -1.2 | 5.4
O=S(=O)(Nc1ccc(Cc2ccncc2)cc1)c1ccc(Cl)s1 | 2 | x | x | x | -8 | 1 | 0.1 | 16% | x | -3.0
O=C(NC(C(=O)O)c1ccccc1)c1ccc(S(=O)(=O)N2CCOCC2)cc1 (stereo not given) | x | x | x | x | -6 | 2 | -0.4 | 7% | x | 4.7
COC(=O)c1cc(NCc2c(F)cccc2Cl)ccc1N1CCOCC1 | 27 | x | x | x | 31 | 2 | 0.1 | 5% | x | 0.7
COc1cc(CNn2nnnc2N)ccc1OCC(=O)NC(C)(C)C | -23 | x | x | x | -10 | -2 | -0.3 | -1% | x | 1.5
Cc1cc2nc(C)n(CCCNC(=O)Nc3cccc4ccccc34)c2cc1C | 17 | x | x | x | 28 | 39 | 0.4 | -4% | x | 2.3
CC(=O)N1c2c(cc(Br)cc2S(=O)(=O)N2CCN(C(=O)c3ccco3)CC2)CC1C (stereo not given) | 11 | x | x | x | -6 | -4 | -0.5 | 14% | x | -1.4
Cc1nc(NC(=O)C2CCCC2)sc1Cc1ccc2c(c1)OCO2 | 7 | -59 | -79 | -19 | -22 | 1 | -0.5 | 4% | 4.9 | -3.6
O=C(Nc1cccc(NC(=O)c2ccccc2Cl)c1)c1ccco1 | 10 | 0 | 4 | -1.8 | 23 | -1 | -0.4 | -4% | -0.5 | 5.8
CCOc1ccc2c(c1)c(N=Nc1cccc(C(=O)O)c1)c(O)n2C | 7 | x | x | x | u | -3 | -3.2 | x | x | u
Nc1ccccc1C(=O)N1CCC(O)(c2ccc(Cl)cc2)CC1 | 6 | -5 | 2 | -0.8 | 2 | x | 0.9 | x | -0.4 | 2.5
CCN1CCN(C(=S)Nc2ccsc2C(=O)OC)CC1 | -8 | 16 | 14 | 3.5 | 3 | -12 | 0.5 | -5% | x | 0.4
O=C(NC(=S)NNS(=O)(=O)c1ccc(Cl)cc1)c1cccnc1 | -6 | -17 | -31 | -5.1 | -9 | 4 | -0.5 | 21% | -9.1 | 2.7
O=C(Oc1c(-c2ccccc2)c(=O)n2c3c(cccc13)CC2)c1ccc(Cl)cc1 | 4 | 25 | 23 | 2.3 | -2 | 0 | -0.4 | x | -1.6 | -1.2
CCOC(=O)c1ccccc1NC(=O)Cc1ccc(S(=O)(=O)N2CCCC2)s1 | x | -5 | -21 | 8.3 | x | 5 | -2.6 | -9% | 0.8 | x
COc1ccccc1NS(=O)(=O)c1cccc(NC(=O)Nc2ccc(Cl)cc2)c1 | 67* | -32 | -65 | 9.7 | -1 | 47 | -0.1 | 7% | -0.1 | u
Cc1cccc(NC(=O)CSc2nc3nc(C)cc(C)n3n2)c1 | -2 | 4 | -6 | 3.1 | 0 | -11 | 1.6 | x | -2.4 | 0.8
O=C(Nc1ccc2c(c1)OCCO2)C1CCCN(c2ncccn2)C1 (stereo not given) | -5 | x | x | x | -8 | 3 | -0.5 | -7% | x | -0.8
Cc1cc(OC(C)C(=O)N/N=C/CC(C)c2ccccc2)ccc1Cl (stereo not given) | 1 | x | x | x | 5 | -2 | 1.6 | -4% | x | 4.1
O=C(N/C=C/c1ccccc1)Nc1ccc(Cl)cc1 | -11 | x | x | x | 1 | 0 | 0.4 | 18% | x | 6.6
CC(C)(C)C(C(=O)O)N1CCS(=O)(=O)CC1 (stereo not given) | -13 | 4 | 11 | 0.6 | -3 | -5 | 0.2 | -6% | -1.5 | 4.8
COCC(C)N1CCC(n2nccc2NC(=O)c2ccccc2Cl)CC1 (stereo not given) | -1 | 13 | 10 | 2.9 | -1 | -6 | 0.9 | x | -6.4 | u
COc1ccc(NC(=O)Cn2c3ccccc3c3nc4n(c(=O)c32)CCS4)cc1 | 2 | 6 | 5 | -0.5 | 43 | 14 | -0.1 | x | 2.4 | -0.7
O=C(CN1CCN(Cc2ccccc2)CC1)N/N=C/C=C/c1ccco1 | -18 | x | x | x | -17 | 0 | 0.3 | x | x | 1.2
CC(NC(=O)CCNS(=O)(=O)c1ccccc1)c1ccccc1 (stereo not given) | 3 | 0 | -1 | 0.0 | -3 | -3 | -0.2 | x | -3.0 | 0.6
Cc1cccc(NC(=O)CSc2nccn2Cc2ccco2)c1 | -7 | -3 | -11 | 0.1 | 6 | 6 | 0.0 | x | 2.1 | 4.6
CCc1ccc(S(=O)(=O)NCCc2cn3ccccc3n2)s1 | -13 | x | x | x | -6 | -10 | 0.1 | 0% | x | 0.5
CC(C)(Oc1ccc(-c2ccco2)cc1)C(=O)O | -8 | x | x | x | -1 | -1 | 0.6 | 3% | x | -9.5
COCCNC(=O)CN1c2ccccc2CC1C (stereo not given) | -7 | x | x | x | 0 | 2 | -0.8 | u | x | 1.8
CC1C2Cn3c(nc4ccccc43)C1N(C(C)C)O2 (stereo not given) | -2 | 6 | -2 | 21 | 1 | -4 | -0.8 | 1% | -0.9 | 1.7
CCNCc1ccc(OCc2cccs2)c(OCC)c1 | 9 | 8 | 2 | 3.2 | -22 | 5 | 0.2 | 24% | 5.5 | -1.5
CCOC(=O)N1CCC(NC(=O)CSCc2nc(-c3ccc(C)cc3)oc2C)CC1 | 3 | -1 | 11 | 0.8 | -4 | -1 | 0.2 | 3% | -5.1 | -0.1
CCOc1ccc(NC(=O)C2CCCN(S(=O)(=O)c3c(C)nn(C)c3C)C2)cc1 (stereo not given) | 14 | -5 | -5 | 2.1 | -1 | -5 | 0.3 | 141% | 2.7 | 0.0
Cc1ccc2cc3c(nc2c1)N(Cc1ccco1)CC3 | 15 | x | x | x | -7 | 5 | 0.3 | u | x | 2.4
COc1ccc(CCNc2c([N+](=O)[O-])ncn2C)cc1OC | -19 | 3 | 4 | -2.1 | 2 | -2 | 0.8 | u | -2.6 | 4.5
COCCCNC(=S)NC(=O)c1ccccc1 | -8 | x | x | x | 0 | -7 | -1.0 | -8% | x | -3.5
COc1cc(OC)cc(C(=O)Nc2ccccc2C(=O)N2CCCC2)c1 | 8 | x | x | x | 8 | -17 | -0.5 | 22% | x | -0.8
c1ccc(-n2nnc3ccccc32)cc1 | -2 | x | x | x | 0 | -9 | 0.0 | x | -1.8 | 6.4
C=CCn1c(=O)c2ccccc2n2c(SCC(=O)NCC)nnc12 | -13 | 8 | 7 | 0.2 | 0 | 1 | 0.1 | -3% | -0.1 | -0.3
NC(=O)CN1CCOCCOCCOCCOCCOCC1 | -15 | x | x | x | -24 | -7 | 0.0 | -2% | x | -1.8
CN1CCN(C(=O)c2ccc3c(c2)N(Cc2cccc(Cl)c2)C(=O)c2ccccc2S3(=O)=O)CC1 | -8 | -2 | 8 | 3.3 | 10 | 1 | 0.2 | x | 4.3 | 1.4
O=C(/C=C/c1ccc(OCCCF)cc1)NCc1cccc(Cl)c1 | 18 | x | x | x | -17 | 2 | -0.4 | 32% | x | 4.2
O=C(CN1CCN(C(=O)C2CCCO2)CC1)Nc1cc(Cl)ccc1Cl (stereo not given) | -4 | 4 | 1 | -1.2 | 7 | -5 | 0.3 | x | -1.6 | -7.2
CCOC(=O)CSc1ncccn1 | -4 | 15 | 17 | 1.9 | -6 | 2 | 0.1 | -10% | -0.7 | -2.9
Cc1cc(=O)oc2cc(OC(C)C(=O)N3CCOCC3)ccc12 (stereo not given) | -7 | x | x | x | 2 | -6 | 0.0 | 5% | x | -1.6
Cc1cc(NNC(=O)Nc2cccc(Cl)c2)nc2c1c(C)nn2C | -30 | x | x | x | 3 | 61 | 1.3 | -16% | x | u
COc1ccccc1OCC(=O)Nc1ccc(C(N)=O)cc1 | 3 | x | x | x | -12 | -10 | 1.0 | 7% | x | -0.5
Continuation:
SMILES | T cruzi inh | rRNA inh HTS | rRNA inh HTS OD600 | rRNA inh HTS RFP | Calb FLC | Beta apoptosis | A1 inh | Vif TR-FRET | AF4-AF9 inh | RanGTP-Impb inh
N#CCCN1CCN(S(=O)(=O)c2ccc(C#N)cc2)CC1 | -2 | x | x | x | 15 | 8 | 1.2 | 0% | x | 4.3
CC(=O)N1CCC(N(CCN2CCOCC2)C(=S)Nc2ccc(C)cc2C)CC1 | -4 | 8 | 1 | -4.0 | -3 | -3 | 0.9 | x | 3.4 | u
COC(=O)[C@]1(CC(C)C)N[C@H](c2ccc(SC3CCCCC3)c(OC)c2)[C@@H]2C(=O)N(C)C(=O)[C@@H]21 | 12 | -6 | -23 | -2.8 | -15 | -4 | 0.7 | x | 4.4 | 0.6
COc1cccc(NC(=O)C/C(C)=N/NC(=O)c2ccccc2Cl)c1 | -3 | -4 | -5 | -2.8 | -1 | -1 | 0.2 | 1% | -0.4 | 3.9
O=c1[nH]c(NCCO)nc2c1C1(CCCC1)Cc1ccccc1-2 | 13 | x | x | x | -3 | -6 | 0.1 | -9% | x | 0.3
CCC1CCCCN1C(=O)c1noc(C(C)C)c1[N+](=O)[O-] (stereo not given) | -5 | x | x | x | 7 | 2 | 1.1 | -13% | x | -4.0
CCc1cccc(CC)c1NC(=O)CSc1nnc(C2CC2)n1C | 2 | 16 | 10 | 0.3 | 33 | -1 | 0.4 | x | -2.5 | 1.7
NS(=O)(=O)c1ccc(NC(=O)COC(=O)Cc2ccc(Cl)cc2)cc1 | -2 | 3 | 1 | 0.1 | 16 | 0 | -0.5 | -1% | -44 | 3.0
Cc1ccc(NC(=S)/C(=C(\[O-])c2ccc(C)c([N+](=O)[O-])c2)[n+]2ccccc2)cc1C | 0 | x | x | x | -26 | 6 | 0.5 | 1% | x | 5.5
C=CCN(C(=O)c1cccc(C(F)(F)F)c1)C1(C(=O)Nc2ccccc2)CCN(C(C)C)CC1 | 26 | 8 | 4 | -0.6 | 7 | -1 | -0.1 | -3% | -2.5 | -0.8
COC(=O)C1=C(C)C(c2ccc(OC)cc2OC)NC(=O)N1 (stereo not given) | -1 | x | x | x | 13 | -5 | 0.4 | 2% | x | -2.7

A portion of the library. The share of hits here may be higher or lower than overall.
